Source: PubChem
SARS PLpro yeast: blocks SARS-CoV papain-like protease in a yeast assay; S. cerevisiae expressing SARS-CoV PLpro, growth rescue; control for the full effect not named in the record; 330,000 tested, 0.19% active; Potency, µM (titrated, usually from 32.9 µM), inactives show at the highest dose activity, positive = growth rescue; active means well fitted rising curve with a large enough effect; inconclusive means small, poorly fitted or top-dose-only effect; inactive means no such curve, though single readings can be large or run the other way; also: 0% is about no effect; nearly all actives have a fitted effect of over 55% in size; growth read by luminescence after 48 h
Cruzain inh Det: cruzain (T. cruzi) inhibition with detergent; purified cruzain, Z-FR-AMC fluorescence, 0.01% Triton; 200,000 tested, 0.43% active; Potency, µM, for inactives: max response, negative = inhibition, usual class: inhibitors; AID 1478;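 also: plate controls were neutral wells for no effect and buffer without enzyme for full effect; nearly all actives have a fitted effect of over 40% in size; top concentration of the series not given in the record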
Target sequence (P25779 123-467 limits assumed): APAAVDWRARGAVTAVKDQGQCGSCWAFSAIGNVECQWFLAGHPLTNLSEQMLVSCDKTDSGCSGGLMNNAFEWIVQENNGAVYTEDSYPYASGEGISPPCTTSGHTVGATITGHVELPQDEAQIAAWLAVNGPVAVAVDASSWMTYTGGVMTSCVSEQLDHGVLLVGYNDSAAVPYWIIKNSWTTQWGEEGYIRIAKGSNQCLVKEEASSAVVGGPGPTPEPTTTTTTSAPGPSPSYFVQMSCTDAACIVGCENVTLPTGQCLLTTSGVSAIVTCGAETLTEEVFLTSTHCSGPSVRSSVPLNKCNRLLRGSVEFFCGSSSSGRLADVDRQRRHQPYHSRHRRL
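Cysteine protease activity tested under reducing, mildly acidic conditions (100 mM sodium acetate pH 5.5, 5 mM DTT) plus 0.01% Triton X-100. Cruzain 1.5 nM; substrate Z-FR-AMC 2 uM; 15 min compound preincubation at room temperature.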
RE007 growth inh: less growth of the S. pombe RE007 Vpr strain; 360,000 tested, 0.21% active; S. pombe RE007 Vpr strain, BacTiter-Glo ATP luminescence, 24 h; control for the full effect not named in the record; Potency, µM (series often up to 92.2 µM), inactives show at the highest dose activity change, negative = less growth; AID 651644; active = well fitted falling curve with a large enough effect; inconclusive = small, poorly fitted or top-dose-only effect; inactive = no such curve, though single readings can be large or run the other way;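 also: % is scaled to controls: 0 for no effect and ±100 for the full control effect; nearly all actives have a fitted effect of over 50% in size; the assay follows cell death caused by Vpr and the record does not say whether a fall means rescue or toxicity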
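Fission yeast RE007 carrying one integrated HIV-1 vpr copy, seeded at OD 0.01 in PMG+AL medium with 23 nL pinned compound. Grown 24 h at 30 degrees; viability read by BacTiter-Glo luminescence after 5 min.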
LASV entry inh: inhibitors of Lassa virus binding or cell entry. Lassa virus pseudotype entry inhibition, cell reporter; control for the full effect not named in the record. Potency, µM (highest dose often 37.9 µM), inactives show top-dose activity change, negative = inhibition, actives largely listed as inhibitors. 300,000 tested, 1.2% active; active means well fitted inhibition curve with a large enough effect; inconclusive means small, poorly fitted or top-dose-only effect, or effect the other way; inactive means flat fitted curve, though single readings scatter; tested in HEK293 cells; also: % is scaled to controls: 0 for no effect and ±100 for the full control effect; nearly all actives have a fitted effect of over 50% in size; luciferase read-out
Cruzain inh noDet: inhibitors of Trypanosoma cruzi cruzain without detergent | P25779 | Potency, µM, for inactives: max response, negative = inhibition, hits mostly inhibitors | AID 1476 | purified cruzain, Z-FR-AMC fluorescence, no detergent | 200,000 tested, 2.3% active;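 also: plate controls were enzyme without inhibitor for no effect and buffer without enzyme for full effect; nearly all actives have a fitted effect of over 40% in size; top concentration of the series not given in the record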
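Detergent-free condition (0.00005% Triton X-100) in acetate buffer pH 5.5 with DTT. 1.5 nM enzyme and compound were pre-mixed 15 min, then 2 uM Z-FR-AMC substrate added; reaction progress from fluorescence change between first and third reads (60 s).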
NS1 inh: inhibitors of influenza NS1 protein function. 270,000 tested, 0.4% active. S. cerevisiae slowed by influenza A NS1, growth recovery by OD600. Potency, µM (titrated, usually from 46.1 µM), for inactives: at the top dose activity, positive = more growth. AID 2326; active means well fitted rising curve with a large enough effect; inconclusive means small, poorly fitted or top-dose-only effect; inactive means no such curve, though single readings can be large or run the other way; also: nearly all actives have a fitted effect of over 50% in size
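Read-out: OD600 growth recovery of NS1-expressing budding yeast. Cells grown overnight at 30C in -URA glucose medium, washed, resuspended and diluted 1:100 in 2% galactose assay medium, pH 6.0. Same strain lacking NS1 served as positive control.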
StopGo reporter: lowers the luciferase signal of an FMDV 2A StopGo reporter; 410,000 tested, 1.2% active; human cells with a luciferase reporter of 2A StopGo recoding; control for the full effect not named in the record; Potency, µM (highest dose often 57.9 µM), for inactives: at the top dose signal change, negative = less light; active = well fitted falling curve with a large enough effect; inconclusive = small, poorly fitted or top-dose-only effect; inactive = no such curve, though single readings can be large or run the other way; tested in HEK293T cells; also: % is scaled to controls: 0 for no effect and ±100 for the full control effect; nearly all actives have a fitted effect of over 45% in size; luciferase light after 4 h
Marburg entry inh: Marburg virus entry inhibition | Marburg virus pseudotyped entry inhibition, cell reporter; control for the full effect not named in the record; about a third of the inactives were read at about 46 µM | Potency, µM (series often up to 37.8 µM), without a hit: top-dose activity change, negative = inhibition, actives largely listed as inhibitors | 300,000 tested, 1.8% active | AID 540276; active = well fitted inhibition curve with a large enough effect; inconclusive = small, poorly fitted or top-dose-only effect, or effect the other way; inactive = flat fitted curve, though single readings scatter; tested in HEK293 cells; about a fifth of its hits are not listed in these tables; also: % is scaled to controls: 0 for no effect and ±100 for the full control effect; luciferase read-out
The depositor's hits bear a star; ? = inconclusive; / = not tested or not shown; & = joins results of further samples; [ ] = remark or other dose. Unless noted, calls follow the shape of the dose curve; as a rule, active = well fitted curve in the direction sought with a large enough effect; inconclusive = small, poorly fitted or top-dose-only effect, or another doubt; inactive = no such curve, though single readings can be large; an effect the other way counts as inactive or inconclusive. Potency is read from the fitted curve at half-maximal effect.

no. | compound | SARS PLpro yeast | Cruzain inh Det | RE007 growth inh | LASV entry inh
1 | COC(=O)c1cc(Cl)c(NC(=O)/C=C/c2ccc(Cl)cc2)cc1OC | 2% | 5.1% | 5% | -22%
2 | COc1ccc2c(CC(=O)NCC3CCC(C(=O)O)CC3)cc(=O)oc2c1 (stereo not drawn) | 2% | -7.5% | 8% | 0%
3 | Cc1ccn2c(c1)nc(=O)c1cc(S(=O)(=O)N3CCCCC3)c(Cl)cc12 | / | 1.0% | / | 9%[46.1 µM]
4 | CC(=O)Nc1sc2c(c1CN1CCN(C)CC1)CCCC2 | -15% | 1.9% | 12% | 9%
5 | COc1ccc(NC(=O)C2CCCCN2CC(=O)OCc2ccccc2)cc1OC (stereo not drawn) | 12% | 2.5% | 16% | 7%
6 | COc1ccc(-c2noc(CCCC(=O)O)n2)cc1 | 1% | 2.0% | -17% | ?
7 | O=C(Cn1c(=O)n(Cc2ccccc2)c(=O)c2cc(Cl)ccc21)NCC1CCCO1 (stereo not drawn) | 2% | / | -7% | 2%
8 | NC(=O)CC(c1ccccc1)c1ccco1 (stereo not drawn) | -15% | 3.1% | -12% | 17%
9 | CN(C)CCN=Cc1c(O)n(-c2cccc(C(F)(F)F)c2)c(=O)[nH]c1=O | 2% | -1.3% | -5% | -2%
10 | CCC/C(O)=C1\C(=O)CCCC1=NC(C)C(=O)O (stereo not drawn) | 9% | 2.3% | 13% | -5%
11 | COc1cc(CNCCO)ccc1OCCc1ccccc1 | 4% | / | 22% | 13%[46.1 µM]
12 | O=C(c1cnc2n(c1=O)CCS2)N(c1ccccc1)C1CCCCC1 | 6% | 2.5% | 1% | -5%
13 | COc1ccc2cc(C3CC(c4cccs4)=NN3C(C)=O)c(Cl)nc2c1 (stereo not drawn) | -1% | / | 18% | 15%
14 | O/N=C\c1ccc2noc(-c3ccc(Cl)cc3)c2c1 | 1% | / | 2% | /
15 | CCS(=O)(=O)c1ccc(-c2cccc(NC(=O)c3ccc(Br)o3)c2)nn1 | -2% | / | 1% | -4%

no. | Cruzain inh noDet | NS1 inh | StopGo reporter | Marburg entry inh
1 | -3% | 14% | -25% | -24%
2 | -27% | 15% | 8% | 21%
3 | 2% | / | -25% | -7%[46.1 µM]
4 | -8% | 0% | -5% | /
5 | 8% | -20% | 0% | -3%&-3%[46.1 µM]
6 | -11% | 6% | ? | ?
7 | / | -6% | -2% | 3%[46.1 µM]
8 | 7% | ? | 10% | 5%
9 | -5% | -5% | / | 11%
10 | -8% | 4% | / | 11%
11 | / | 6% | -13% | ?
12 | 10% | -6% | -1% | 16%
13 | / | -6% | -2% | 1%
14 | / | -5% | -6% | /
15 | / | / | 7% | -7%

Given with one line to a screen: 6 of the compounds above
6) COc1ccc(-c2noc(CCCC(=O)O)n2)cc1
7) O=C(Cn1c(=O)n(Cc2ccccc2)c(=O)c2cc(Cl)ccc21)NCC1CCCO1 (stereo not drawn)
8) NC(=O)CC(c1ccccc1)c1ccco1 (stereo not drawn)
9) CN(C)CCN=Cc1c(O)n(-c2cccc(C(F)(F)F)c2)c(=O)[nH]c1=O
10) CCC/C(O)=C1\C(=O)CCCC1=NC(C)C(=O)O (stereo not drawn)
11) COc1cc(CNCCO)ccc1OCCc1ccccc1

Screen / compound no.,6,7,8,9,10,11
SARS PLpro yeast,1%,2%,-15%,2%,9%,4%
Cruzain inh Det,2.0%,/,3.1%,-1.3%,2.3%,/
RE007 growth inh,-17%,-7%,-12%,-5%,13%,22%
LASV entry inh,?,2%,17%,-2%,-5%,13%[46.1 µM]
Cruzain inh noDet,-11%,/,7%,-5%,-8%,/
NS1 inh,6%,-6%,?,-5%,4%,6%
StopGo reporter,?,-2%,10%,/,/,-13%
Marburg entry inh,?,3%[46.1 µM],5%,11%,11%,?

Copied from the list.
entry 8 in Cruzain inh Det is listed with 3.1%
entry 9 in NS1 inh is listed with -5%
entry 6 in Cruzain inh Det is listed with 2.0%

Continued.
no. | compound | SARS PLpro yeast | Cruzain inh Det | RE007 growth inh | LASV entry inh
16 | C(=C\c1ccccc1)/CN1CCN(c2ncnc3c2oc2ccccc23)CC1 | -7% | -5.8% | -2% | -16%
17 | Cc1cccc(Cn2c(SCc3ccc(C(=O)NC4CCCCC4)cc3)nc3ccncc32)c1 | / | 1.5% | / | /
18 | CCn1cc2nc(SCC(=O)Nc3ccc(OC)c(OC)c3)n(Cc3ccc(Cl)cc3)c(=O)c2n1 | / | -6.9% | / | 5%[46.1 µM]
19 | O=P(Nc1c(Cl)cccc1Cl)(c1ccccc1)c1nc2c(s1)CCCC2 (stereo not drawn) | -1% | -0.5% | -14% | -3%
20 | CP(=O)(O)CCCN | 5% | 3.3%&-5.2%&0.8% | 0% | ?
21 | CC1(C)C(C=C(Cl)Cl)C1C(=O)NC(O)C(=O)c1ccccc1 (stereo not drawn) | 0% | / | 2% | 6%
22 | Cc1cc(C)c2nc(N(CCN(C)C)C(=O)c3ccc(S(=O)(=O)N(C)CC4CCCO4)cc3)sc2c1 (stereo not drawn) | 0% | / | 1% | /
23 | Cc1cc(/C=N/N2CCN(C)CC2)c(C)n1-c1ccccc1F | 0% | / | 15% | 3%
24 | O=C(NCCOC(=O)c1c(F)cccc1Cl)c1c(F)cccc1Cl | -1% | / | 35% | ?
25 | CCCn1c(N)c(N(CCOC)C(=O)c2cccc(F)c2)c(=O)[nH]c1=O | -2% | / | -19% | 10%
26 | Cc1cc(S(=O)(=O)N2CCCCC2CCNC(=O)C(=O)NC2CC2)ccc1F (stereo not drawn) | -2% | / | 6% | ?
27 | CN(Cc1ccc(F)cc1)Cc1nc(CCc2ccccc2)no1 | 0% | / | -9% | -5%
28 | N#C/C(=N\Nc1ccccc1[N+](=O)[O-])C(=N)N1CCCCC1 | -4% | / | -22% | ?
29 | CC(C)Oc1ccc(CNC(=O)c2ccc(NC(=O)N3CC(C)Sc4ccccc43)cc2)cc1 (stereo not drawn) | / | -4.4% | / | ?
30 | CCCC(=O)Nc1sc2c(c1C(=O)OCC)CC(C)(C)OC2 | 1% | / | 4% | 17%

no. | Cruzain inh noDet | NS1 inh | StopGo reporter | Marburg entry inh
16 | -14% | -42% | 20µM* | ?
17 | -12% | / | -6% | 3%[46.1 µM]
18 | ? | / | 7% | -2%[46.1 µM]
19 | 2% | -9% | 38%[activator] | 10%
20 | 4%&4%&4% | 8%&-3% | -16%&1% | ?
21 | / | 0% | 1% | -17%
22 | / | 1% | -1% | /
23 | / | 1% | 0% | -2%
24 | / | -6% | -18% | ?
25 | / | 8% | -5% | 15%[46.1 µM]
26 | / | / | -19% | ?
27 | / | -4% | -23% | 20%
28 | / | / | -20% | ?
29 | ? | / | -28% | ?
30 | / | 1% | -20% | ?

Later entries.
no. | compound | SARS PLpro yeast | Cruzain inh Det | RE007 growth inh | LASV entry inh
31 | CSc1nnc(C)c(=O)n1COC(=O)c1cc(Cl)ccc1[N+](=O)[O-] | -1% | / | -8% | -2%[46.1 µM]
32 | CC(C)OCCCNc1ncnc2sc3c(c12)CCCC3 | / | -5.5% | / | -3%[46.1 µM]
33 | CCc1nc(SCC(=O)Nc2nnc(CC)s2)c2c(C)c(C)sc2n1 | -6% | 3.3% | 4% | 17%
34 | Cc1ccccc1OCC(O)CN1CCN(C)CC1 (stereo not drawn) | 2% | / | 1% | /
35 | NC(=O)CSc1nnc(-c2ccc(S(=O)(=O)N3CCOCC3)cc2)n1Cc1ccccc1 | -4% | 1.7% | 7% | -25%[14.3 µM]
36 | O=C(CSCC(=O)OCC(=O)c1ccc(Br)cc1)Nc1ccc(Br)cc1 | 4% | -8.3% | 16% | 1%
37 | CCCCN(C(=O)c1cc(-c2ccc(F)cc2)nc2ccccc12)c1c(N)n(CCCC)c(=O)[nH]c1=O | 8% | / | 1% | ?
38 | CC(C)(C)n1nc2c(c1NC(=O)c1ccc(S(=O)(=O)N3CCCC3)cc1)CS(=O)C2 (stereo not drawn) | -3% | 4.1% | 0% | -9%
39 | CC(C)c1ccc(Nc2nc3ccc(C(=O)c4ccccc4)cc3n3cnnc23)cc1 | / | -2.2% | / | ?
40 | COc1ccccc1C(=O)Nc1nc(-c2cccs2)c(NC(C)=O)s1 | 11% | -3.3% | -10% | -3%
41 | CC1CCc2c(sc(NC(=O)C3c4ccccc4Oc4ccccc43)c2C#N)C1 (stereo not drawn) | / | -3.7% | / | ?
42 | CC(=O)Cn1nnc2sc(-c3ccccc3)cc2c1=O | 2% | -7.6% | -12% | ?
43 | O=[N+]([O-])c1ccccc1OCCN1CCOCC1 | 7% | / | -5% | ?
44 | Cc1nc2c(C)cccn2c(=O)c1NC(=O)c1ccc(Br)o1 | 4% | / | 1% | -4%
45 | O=C(COc1ccc2c3c(c(=O)oc2c1)CCCC3)NCC(O)c1ccccc1 (stereo not drawn) | 3% | / | 2% | /
46 | COc1ccc(C2=NN(C(=O)CSc3nc(=O)n4ccc(C)cc4n3)C(c3ccc(C)cc3)C2)cc1 (stereo not drawn) | 2% | / | 4% | -3%
47 | Cc1ccc(-c2nc(C=Nc3cccc(C)c3)c(O)o2)cc1 | 4% | / | 0% | -6%[46.1 µM]
48 | Cc1cccc(-n2ccnc2SCC(=O)Nc2ccc3c(c2)OCO3)c1 | / | -4.0% | / | -15%[46.1 µM]

no. | Cruzain inh noDet | NS1 inh | StopGo reporter | Marburg entry inh
31 | / | / | -29% | -17%[46.1 µM]
32 | 7% | / | -13% | ?
33 | 11% | ? | / | -8%
34 | / | -1% | -12% | /
35 | ? | -1% | 11% | 2%&27%
36 | 3% | -3% | -8% | -6%
37 | / | / | -10% | ?
38 | -2% | -47% | -5% | -10%[46.1 µM]
39 | 27% | / | -3% | /
40 | ? | 3% | 29% | 1%
41 | -24% | / | -8% | ?
42 | -4% | / | 35%&32%[activator] | ?
43 | / | 12% | 6% | -1%
44 | / | / | -1% | 15%
45 | / | 9% | -10% | /
46 | / | / | -1% | -4%
47 | / | / | 20% | -10%[46.1 µM]
48 | 1% | / | -7% | /
